Compound activity: PubChem BioAssay, several laboratories
FGF22 binding: binders of human FGF22 protein, primary screen, FGF22 synaptogenesis inhibitor project, biophysical, thermal shift, single point; Fibroblast growth factor 22 (Homo sapiens), Q9HCT0; recombinant FGF22 thermal shift, SYPRO orange fluorescence; percent of sucrose octasulfate shift, DMSO zero; calls only at 9.99 µM; 340,000 tested, 1.5% active; AID 651658, 2012;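 active = melting point raised past a set limit in the mean and every replicate; three in four hits are not shown here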
Target sequence (Q9HCT0 whole entry, looked up): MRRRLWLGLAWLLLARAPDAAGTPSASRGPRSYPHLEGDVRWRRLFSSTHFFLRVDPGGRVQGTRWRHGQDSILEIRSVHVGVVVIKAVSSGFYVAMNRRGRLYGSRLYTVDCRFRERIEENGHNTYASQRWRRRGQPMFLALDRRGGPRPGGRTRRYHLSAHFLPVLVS
Ecoli growth: E. coli growth inhibition, primary screen, OD600. Escherichia coli growth, 23 h; stronger effect = lower value. OD600 absorbance (test concentration not listed). 330,000 tested, 0.21% active. AID 1053175, 2014;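 active = OD600 absorbance below the run mean of sample wells minus 3.6 SD, in any replicate, cut at about 0.56 in these data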;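 note: stock transfer was 300 nL into about 60 µL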
HNF4A DNA FP: change in binding of human HNF4A to DNA, primary screen, biochemical, fluorescence polarization, FITC-DNA. Hepatocyte nuclear factor 4-alpha (Homo sapiens), P41235. 1 h. activity change, % at 10 µM. 360,000 tested, 0.3% active. AID 1224865, 2016; in the data active = activity change above about 30%, passing the limit was not always enough;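 note: controls were the assay level and a saturating level of protein; the project sought stronger binding though the title names inhibitors; some compounds called inactive have numbers as strong as hits; positive values seem to mean higher polarization but the record does not say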
Target sequence (P41235 whole entry, looked up): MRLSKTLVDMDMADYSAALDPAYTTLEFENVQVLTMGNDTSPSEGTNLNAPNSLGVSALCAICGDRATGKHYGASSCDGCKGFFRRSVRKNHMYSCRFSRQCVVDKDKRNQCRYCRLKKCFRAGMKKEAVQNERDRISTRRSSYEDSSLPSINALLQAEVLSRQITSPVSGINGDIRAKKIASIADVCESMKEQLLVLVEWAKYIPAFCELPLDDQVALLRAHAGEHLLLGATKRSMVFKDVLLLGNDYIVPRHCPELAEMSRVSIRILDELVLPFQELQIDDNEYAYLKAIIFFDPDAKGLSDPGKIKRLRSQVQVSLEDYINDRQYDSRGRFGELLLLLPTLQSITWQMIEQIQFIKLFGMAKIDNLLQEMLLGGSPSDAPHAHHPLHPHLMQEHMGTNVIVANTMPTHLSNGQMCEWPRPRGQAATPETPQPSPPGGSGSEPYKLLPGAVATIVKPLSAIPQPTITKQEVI
ALR inh: inhibitors of human ALR sulfhydryl oxidase, primary screen, biochemical, H2O2 detection, HRP-luminol luminescence, single point; 290,000 tested, 3.8% active; inhibition, % (no concentration beside the values); FAD-linked sulfhydryl oxidase ALR (Homo sapiens), P55789; purified ALR, DTT oxidation;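 active = mean and each replicate at 75% or more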;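 note: stock transfer was 7.5 nL into about 7.5 µL; 0% = neutral wells and 100% = wells with inactivated enzyme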
Beta2AR agonist: beta2AR agonists driving receptor internalization, primary screen, cell-based, FAP fluorogen, flow cytometry; AID 504454, 2011; 340,000 tested, 0.43% active; response, % (no concentration beside the values); Am2.2-beta2AR cells; reference of the scale not given here; Beta-2 adrenergic receptor (Homo sapiens), P07550;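 active = response above a set limit, near 3 SD of response in nonfluorescent compounds, cut at about 42% in these data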;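 note: stock transfer was 100 nL into about 11 µL; a reference agonist was the positive control; negative values mostly stem from fluorescent compounds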
LANA-H2B inh: blockers of LANA interaction with H2A/H2B – biochemical, FP readout, HTS, primary screen; Protein LANA1 (Human herpesvirus 8 type P (isolate GK18)), Q9QR71; cell-free LANA-H2A/H2B peptide, fluorescence polarization; inhibition, % (no concentration beside the values); 320,000 tested, 0.6% active; AID 2629, 2010; in the data active = inhibition mostly above about 10%, no sharp cut-off; inactive = mostly below about 6.7%;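 note: stock transfer was 7.5 nL into about 10 µL; 0% = median of vehicle wells and 100% = median of positive control wells; one replicate is shown; the record names a cut of 25% in any replicate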
UCH37 DUB inh: inhibitors of human UCH37 deubiquitinase, primary screen, biochemical, Ub-AMC cleavage, fluorescence | purified proteasome/UCH37 | 330,000 tested, 0.33% active | Ubiquitin carboxyl-terminal hydrolase isozyme L5 (Homo sapiens), Q9Y5K5 | inhibition, % (test concentration not listed) | AID 588478, 2011;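 active = mean of two replicates above 20%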;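 note: 0% = compound-free wells with enzyme and 100% = wells lacking proteasome; stock transfer was 100 nL into about 20 µL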
Target sequence (Q9Y5K5 whole entry, looked up): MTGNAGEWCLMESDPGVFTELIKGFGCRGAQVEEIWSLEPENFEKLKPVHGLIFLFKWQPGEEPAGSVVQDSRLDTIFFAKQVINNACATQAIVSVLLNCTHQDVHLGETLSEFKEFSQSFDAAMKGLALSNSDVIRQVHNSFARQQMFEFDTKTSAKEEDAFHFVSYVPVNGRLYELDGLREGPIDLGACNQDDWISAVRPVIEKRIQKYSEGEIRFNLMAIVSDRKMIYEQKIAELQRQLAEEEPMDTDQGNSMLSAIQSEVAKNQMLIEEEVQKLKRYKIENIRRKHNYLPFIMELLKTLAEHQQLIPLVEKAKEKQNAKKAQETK
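Schedule: 30 min plus 25 min, room temperature / Material: human UCH37 within purified proteasomes / Technique: AMC fluorescence intensity at 355/460 nm / Buffer or medium: pH 7.4 Tris-HCl (50 mM) with ovalbumin, ATP-MgCl2, DTT / Controls: wells without proteasome as full block, compound-free enzyme plus substrate as uninhibited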
The depositor's hits bear a star; i = inactive; · = not tested or not shown.

SMILES | FGF22 binding | Ecoli growth | HNF4A DNA FP | ALR inh | Beta2AR agonist | LANA-H2B inh | UCH37 DUB inh
Cc1cccc(Nc2nc(N3CCCCC3)nc(N3CCCCC3)n2)c1 | · | 0.7 | 0.2 | -6.3 | 10.4 | -0.3 | 3.3
COc1ccc(CCN(C)Cc2nc(Cc3ccc(OC)c(OC)c3)no2)cc1OC | i | 0.685 | 0.9 | -1.4 | -7.2 | 5.4 | 0.8
COc1cccc(Cn2c(=O)c3[nH]cnc3n(-c3ccccc3C)c2=O)c1 | i | 0.655 | 3.6 | -5.1 | -3.5 | -1.9 | 3.0
CCOc1ccccc1NC(=O)c1cccc(S(=O)(=O)N(Cc2ccccc2)c2ccccc2OC)c1 | i | 0.709 | 5.2 | -7.7 | 0.1 | -0.2 | 0.1
C=CCNc1nc(C(=O)OCC(=O)Nc2c(Cl)cccc2C(F)(F)F)cs1 | i | 0.601 | 1.9 | -2.5 | -3.0 | 0.8 | 1.3
COc1ccc2nc(NC(=O)c3cccc(OCc4c(C)noc4C)c3)sc2c1 | · | 0.744 | -3.0 | -9.5 | 10.1 | 0.9 | -241.1
O=C(COC(=O)c1cnccn1)N=c1sccn1Cc1ccccc1Cl | i | 0.625 | 2.5 | -1.2 | 12.0 | 5.0 | -1.8
Nc1ccc2c(c1)C(=O)N(CCCC(=O)O)C2=O | · | 0.696 | -3.0 | -17.1 | -2.9 | 0.8 | 2.5
Cc1ccc(OCC(=O)OC(C)C(=O)NC2CCCCC2C)cc1C (stereo unspecified) | i | 0.677 | -2.6 | -4.4 | 19.8 | 0.5 | 0.7
Nc1nc2ccccc2nc1N1CCCC1 | i | 0.62 | 1.9 | 46.8 | -15.0 | -3.4 | 2.0
O=C(/C=C\c1ccccc1OC(=O)c1ccccc1F)c1cc2ccccc2o1 | i | 0.677 | -1.7 | 5.5 | 24.0 | 1.0 | 0.4
COc1cc2[nH]c(=S)n(C3CCN(Cc4ccccc4)CC3)c(=O)c2cc1OC | i | 0.705 | 1.0 | · | -12.4 | 4.6 | 2.6
COc1ccc(NC(=O)COc2cccc3c2OC(C)(C)C3)c(OC)c1 | i | 0.684 | -5.3 | · | 6.2 | · | 1.1
COc1ccc(NC(=S)N(Cc2cccnc2)Cc2ccco2)cc1 | i | 0.715 | -0.5 | -5.6 | 4.7 | -0.5 | 2.6
O=C(C1CCCN1S(=O)(=O)c1cccc2cccnc12)N1CCn2c1nc1ccccc12 (stereo unspecified) | · | 0.719 | -1.3 | 39.1 | -12.5 | 10.9 | 5.6
CC(Sc1nnc(-c2cccs2)n1-c1ccccc1)C(=O)NCc1ccc2c(c1)OCO2 (stereo unspecified) | · | 0.647 | 0.3 | -8.5 | -5.0 | 7.9 | 2.1
CCOc1ccc2nc(Nc3nc4ccc(NC(C)=O)cc4s3)sc2c1 | · | · | 5.4 | -1.1 | 0.3 | -5.1 | ·
O=C(CN(c1ccccc1)S(=O)(=O)c1ccccc1[N+](=O)[O-])Nc1cccnc1 | i | · | -2.0 | -6.7 | -6.1 | 0.6 | ·
NC(=O)CN1CCOCCOCCOCCOCCOCC1 | · | 0.693 | -2.5 | -8.7 | -1.1 | 1.1 | 2.4
CN(C)CCCN(C(=O)c1ccc(S(=O)(=O)N2CCc3ccccc3C2)cc1)c1nc2c(F)cc(F)cc2s1 | · | 0.58 | 0.6 | -3.1 | 15.5 | 2.7 | 10.4
O=C(CCN1C(=O)c2ccccc2C1=O)N1CCN(c2ccccc2)CC1 | · | 0.663 | -0.9 | 1.6 | -10.4 | 6.0 | 3.2
CCOC(=O)c1c(NC(=O)Cn2cnc([N+](=O)[O-])n2)sc2c1CCC(C)C2 (stereo unspecified) | · | 0.734 | -1.1 | -32.9 | 4.0 | 2.3 | 2.8
CCCN(C1CCS(=O)(=O)C1)S(=O)(=O)c1cc(OC)ccc1OC (stereo unspecified) | i | 0.65 | -3.6 | -23.4 | 3.9 | 0.4 | 1.1
CCCCNC(=O)c1ccc(C)c(NC(=O)C2=C(C)OCCS2)c1 | i | 0.681 | -2.7 | -4.8 | 1.0 | -2.4 | 4.2
CCOc1ccc(CCNC(=O)CN2C(=O)NC3(CCCc4ccccc43)C2=O)cc1OCC (stereo unspecified) | i | 0.71 | -0.4 | -4.0 | -10.6 | 1.8 | 0.5

Later entries.
SMILES | FGF22 binding | Ecoli growth | HNF4A DNA FP | ALR inh | Beta2AR agonist | LANA-H2B inh | UCH37 DUB inh
Cc1ccc(/C=N/Nc2nc(Cl)c(Cl)cc2Cl)s1 | · | · | 4.8 | -1.4 | 2.1 | -3.7 | ·
COc1ccc(/C=C/c2ccc3cccc(O)c3n2)c(OC)c1OC | i | 0.621 | 0.2 | · | 20.5 | 1.2 | -1.2
O=[N+]([O-])c1cccc(NC(=S)N2CCc3ccccc3C2)c1 | i | · | -29.1 | · | -5.0 | 2.4 | ·
CCOc1ccc(NC(=O)C2CCCN(c3nn4c(=O)cc(C)nc4s3)C2)cc1 (stereo unspecified) | i | 0.711 | -0.8 | -7.9 | -3.1 | -1.8 | -0.1
CCOc1ccc(NC(=O)/C=C/c2ccccc2)c([N+](=O)[O-])c1 | i | 0.72 | 8.8 | -11.6 | -5.5 | -8.1 | 3.0
Cc1c(NS(=O)(=O)c2ccc(N3CCN(C)CC3)c([N+](=O)[O-])c2)c(=O)n(-c2ccccc2)n1C | i | 0.653 | -2.6 | -2.0 | -2.7 | -1.3 | 5.0
O=C(Nc1ccc(C(=O)N2CCOCC2)cc1)c1cc(-c2cccnc2)nc2ccc(Br)cc12 | i | 0.694 | -1.8 | · | -1.1 | -0.7 | 2.8
CC(C)c1ccc(NC(=O)[C@@H]2CCC(=O)N2C2OC(=O)c3ccccc32)cc1 (stereo partly specified) | i | 0.692 | 2.0 | · | 38.7 | -2.9 | 5.0
CCOc1cc(CNCCCN2CCOCC2)ccc1OCC(=O)NC(C)(C)C | · | 0.634 | -0.3 | 6.7 | 3.5 | 3.2 | 4.3
CCc1nc2oc(C(=O)c3ccccc3)c(N)c2c2c1COC(C)(C)C2 | · | 0.791 | 1.7 | 1.2 | -1.6 | -2.7 | -7.2
CC(C)CNC(=O)C(=O)Nc1cc2c3c(c1)CCC(=O)N3CCC2 | i | 0.664 | 1.2 | 1.6 | 9.6 | 0.6 | 4.8
CC(C)C[C@H]1CN=C(Nc2ccccc2)N1CC1CCCCC1 | i | · | 1.2 | 1.3 | -2.8 | -0.9 | 5.1
O=S(=O)(c1ccc(S(=O)(=O)N2CCN(C/C=C/c3ccccc3)CC2)cc1)N1CCCC1 | · | 0.765 | -0.8 | -4.9 | 2.7 | 4.0 | -1.5
CCOC(=O)C(C)c1ccc2cc(OC)ccc2c1 (stereo unspecified) | · | 0.688 | 2.3 | -26.2 | -2.0 | -3.5 | 2.4
O=C(OC(c1ccccc1)c1nccc2ccccc12)c1cc([N+](=O)[O-])cc([N+](=O)[O-])c1 (stereo unspecified) | · | 0.723 | -0.8 | -18.4 | 2.7 | -3.4 | 2.0
Cc1ccc(-n2c(-c3ccncc3)n[nH]c2=S)cc1C | i | 0.72 | -0.7 | 49.4 | -4.0 | -0.3 | 2.6
Cc1cc(C(=O)N/N=C/c2cc(Cl)cc([N+](=O)[O-])c2O)n[nH]1 | i | · | 4.5 | · | -2.8 | 2.2 | ·
COc1ccc(NC(=O)CCCc2nnc3n(C)c(=O)c4sccc4n23)cc1 | i | 0.715 | -0.5 | -0.7 | 0.7 | 2.6 | -0.8
COC(=O)c1c(C)c(OC(=O)c2c(C)cc(O)c(C=O)c2O)cc(C)c1O | · | 0.704 | -3.4 | -5.1 | 5.2 | -5.8 | 3.0
Cc1ccccc1Nc1nc(N)nc(COC(=O)c2ccco2)n1 | i | 0.678 | 1.4 | 0.8 | -6.5 | -3.1 | 2.4
O=C(c1ccco1)N1CCN(c2ncnc3scc(-c4ccccc4)c23)CC1 | · | 0.703 | 3.5 | 0.0 | -12.6 | -6.3 | 0.9
COC(=O)c1ccc(COc2ccc3c4c(c(=O)oc3c2)CCC4)o1 | · | 0.745 | -3.0 | · | -1.7 | -3.7 | -74.5
CC(=O)Nc1cccc(NC(=O)CSc2nc(=O)n(CCN3CCOCC3)c3c2CCCC3)c1 | i | 0.69 | -1.4 | 98.8* | 2.7 | -1.7 | 0.2
CC(C)(C)NC(=O)NC(=O)COC(=O)c1cccc(NS(=O)(=O)c2ccc(F)c(F)c2)c1 | i | 0.735 | -3.5 | 58.5 | -8.0 | 1.3 | 6.0
CC(C)C[C@@H](CNCC(=O)[C@H](CC(C)C)NC(=O)c1[nH]cnc1C(=O)N[C@@H](C)CN)NC(=O)c1nc[nH]c1C(=O)N[C@@H](CC(=O)O)C(=O)O | i | · | 4.7 | · | 2.7 | · | ·

Additional entries.
SMILES | FGF22 binding | Ecoli growth | HNF4A DNA FP | ALR inh | Beta2AR agonist | LANA-H2B inh | UCH37 DUB inh
Cc1cc(C(=O)NCCN2C(=O)S/C(=C\c3cccs3)C2=O)ccc1[N+](=O)[O-] | i | 0.684 | 1.7 | 0.7 | 2.0 | 1.0 | 2.9
Cc1ccc(OCC(=O)N(Cc2nnc(-c3ccccc3Cl)o2)C2CC2)cc1C | i | 0.676 | -5.0 | -17.8 | -10.1 | 0.3 | 0.3
Cc1csc(=O)n1CC(=O)OCC(=O)Nc1ccc(C(N)=O)cc1 | i | 0.715 | 6.6 | -5.3 | -5.1 | · | 5.3
Cc1ccccc1NC(=O)c1sc(Cl)nc1C | i | 0.702 | -3.1 | -0.6 | -2.6 | -1.7 | 4.4
NC(=O)C1(NC(=O)[C@@H]2CC3(CC(c4cccc(NC(=O)[C@@H]5CCC(=O)N5)c4)=NO3)CN2C(=O)Cc2ccc(Cl)cc2)CC1 (stereo partly specified) | i | · | -2.9 | -9.4 | -0.1 | -0.4 | 1.2
COc1cccc(-c2ccc(=O)n(CC(=O)Nc3ccc(S(=O)(=O)NCC(C)C)cc3)n2)c1 | i | 0.668 | · | -2.5 | · | -0.8 | -6.7
COCC(=O)Nc1ccccc1Br | i | 0.709 | -2.2 | -0.9 | 6.8 | -0.7 | 2.5
N#C/C(=C\c1ccc(O)c(O)c1)C(=O)N1CCCC1 | i | 0.709 | 1.3 | 99.6* | 6.6 | 0.9 | 9.1
O=C(CSc1nccn1Cc1ccccc1)Nc1ccccc1 | i | 0.698 | -1.3 | 99.7* | -2.7 | 0.5 | 2.4
CC(=O)Nc1ccc(N=Cc2ccc(OCc3ccccc3)cc2)cc1 | · | 0.615 | 2.6 | -39.4 | -1.9 | 7.5 | 3.1
COc1ccccc1Nc1nc(-c2cccs2)cs1 | i | 0.711 | 10.1 | -3.2 | 19.2 | -0.3 | 2.4
O=C(OCCNc1ccc(C(F)(F)F)cc1[N+](=O)[O-])c1cc2ccccc2oc1=O | i | 0.708 | 176.6 | -4.6 | -2.7 | -2.3 | 4.7
O=C(NCc1ccccc1)C1=C[C@H](c2ccc(Br)cc2)C[C@H](OCc2ccc(CO)cc2)O1 | i | · | -3.6 | -7.8 | 0.7 | -2.4 | ·
CC(=O)c1ccc(N2CCN(C(=O)CN(C)S(=O)(=O)c3cnc[nH]3)CC2)cc1 | i | 0.671 | 1.3 | -0.1 | 6.9 | -2.1 | 5.9
Cc1sc(-n2cccc2)c(C(=O)O)c1C | · | 0.708 | -5.3 | 45.2 | 2.5 | 5.4 | 2.2

A portion of the library. The share of hits here may be higher or lower than overall.
